VACV Venus inh – qHTS for Stage-Specific Inhibitors of Vaccinia Orthopoxvirus: Venus Reporter Primary qHTS; Vaccinia virus Venus reporter expression, fluorescence; Potency, µM (series often up to 36.5 µM), inactives show top-dose activity change, negative = inhibition, usual class: inhibitors; 0.46% of 330,000 active; AID 720580, 2013; active means well fitted inhibition curve with a large enough effect; inconclusive means small, poorly fitted or top-dose-only effect; inactive means no such curve, though single readings can be large or run the other way; tested in A549 cells; further: nearly all actives have a fitted effect of over 30% in size; inactives centre near -10
Vaccinia mCherry – qHTS for Stage-Specific Inhibitors of Vaccinia Orthopoxvirus: mCherry Reporter Primary qHTS | Vaccinia virus mCherry reporter infection, fluorescence; about a quarter of the inactives have no number | Potency, µM (doses to about 36.5 µM), for the others: top-dose activity change, negative = inhibition, most hits filed as inhibitors | 0.63% of 310,000 active; active = well fitted inhibition curve with a large enough effect; inconclusive = small, poorly fitted or top-dose-only effect; inactive = no such curve, though single readings can be large or run the other way; tested in A549 cells; further: nearly all actives have a fitted effect of over 35% in size; inactives centre near -10
Active calls of the source: *; i = inactive; u = inconclusive; x = not tested or not shown; & = joins results of further samples; [ ] = remark or other dose. On the % scale 0 is the no-effect control and ±100 the full control effect; potency means the concentration at half of the fitted maximal effect.

SMILES	VACV Venus inh	Vaccinia mCherry
O=C(C[n+]1cc(Br)cc2ccccc21)c1ccc(F)cc1	-6.9%	-9.5%
CCNC(=S)N1CCc2cc(OC)c(OC)cc2C1COc1ccccc1OC (stereo not given)	-1.0%	-11.5%
C=CCNC(=O)c1c(CSc2ccccc2)noc1C(=O)NCc1ccccc1	-29.1%	-11.0%
O=C(NC1CCCCC1)[C@@H]1CC=C[C@@H]2CCN(Cc3ccc(Cl)c(Cl)c3)C(=O)[C@@H]21	-5.0%	-8.6%
COc1cc2c3c(c1OC)-c1cc4c(cc1CC3(C#N)N(C(=O)c1ccccc1)CC2)OCO4 (stereo not given)	-17.3%	i
CC(C)CNP(=S)(c1ccccc1)C(C)(C)C (stereo not given)	-5.2%	-22.4%
CCCCN(Cc1cc2ccccc2[nH]c1=O)S(C)(=O)=O	-16.4%	i
Cc1cc(NC(=O)C2CC2)ncc1NC(=O)C12CC3CC(CC(C3)C1)C2	-19.3%	-25.6%
c1cncc(-c2nc3ccccc3[nH]2)c1	-0.9%	-9.4%
Cc1ccc(S(=O)(=O)N2CCC3(CC2)OCCN3S(=O)(=O)c2c(C)cc(C)cc2C)cc1	0.8%	-8.2%
CCOC(=O)CNC(=O)CSc1nc2cccnc2n1Cc1ccccc1	-0.8%	-19.5%
Cc1cc(C)c(S(=O)(=O)NCCc2sc3nc(-c4ccc(F)cc4)nn3c2C)c(C)c1	u	-14.4%
CCCCCCOC(=O)CCc1c(C)nc(N)[nH]c1=O	-26.1%	x
CC(=O)c1cc(CN2CCC(n3nccc3NC(=O)c3ccccc3C)CC2)cs1	-5.8%	-11.7%
CCOc1ccc(C(=O)NCC(=O)NCCCn2nc(C)cc2C)cc1OCC	-4.6%	i
COc1ccccc1CNC(=O)COc1ccc(C)cc1	-13.4%	-21.8%
O=C(NCc1ccco1)/C(=C/c1ccco1)NC(=O)c1ccc(Br)o1	-12.5%	-7.1%
CCOC(=O)C1CCCN(C(=O)c2ccc3c(c2)NC(=O)C(N2CCOCC2)S3)C1 (stereo not given)	-15.3%	-20.0%
O=C(c1ccc(Cl)cc1)N1C2C=CC(C2)C1(C(F)(F)F)C(F)(F)F (stereo not given)	-7.2%	i
C=CCOC(=O)C1=C(C)NC(=O)NC1c1ccc(OCC)cc1 (stereo not given)	-18.9%	-3.2%
Cc1ccc2nc(-c3ccccc3)nn2c1	11.3%	8.1%
COc1ccc(Cl)cc1C(=O)NNC(=S)NC(=O)/C=C/c1ccco1	-17.1%	-22.9%
COc1ccccc1C1=NC(c2ccc(C)cc2)N=C1C (stereo not given)	-27.6%	-9.5%
COc1ccc(C(C)=O)cc1COC(=O)c1cccnc1SC	-14.4%	i
COc1ccc(CNS(=O)(=O)c2cc3c4c(c2)CCN4C(=O)CC3)cc1	-11.6%&-7.9%	-13.8%

SMILES	VACV Venus inh	Vaccinia mCherry
CC(C)(C)C(=O)Nc1ncccc1C(O)c1cccc(C(F)(F)F)c1 (stereo not given)	-1.6%	i
CN(C)c1ccc(-c2noc(C3CC(=O)N(c4ccc5c(c4)OCCO5)C3)n2)cc1 (stereo not given)	-6.2%	-13.5%
C=Cn1cc(CNC[C@H]2O[C@@H](n3ccc(N)nc3=O)[C@H](O)[C@@H]2O)c(C)n1	-0.6%	-14.7%
O=C(COc1ccc([N+](=O)[O-])cc1)Nn1cnnc1	-2.2%	-0.9%
COc1ccc(C)cc1N(CC(=O)NCCN1CCOCC1)S(=O)(=O)c1ccccc1	3.9%	i
O=C(Nc1ccc2nsnc2c1)NC1CCCCC1	-27.2%	-8.8%
C[C@H](NC(=O)c1nc[nH]c1C(=O)NC1CCN(C(=O)OC(C)(C)C)CC1)C(=O)OCc1ccccc1	1.8%	i
CCN1CCN(c2ncc3c(n2)CCN(Cc2ccc(Br)s2)C3)CC1	-25.0%	-29.3%
CC1CCN(c2nc(Cl)nc(Nc3ccc([N+](=O)[O-])cc3)n2)CC1	0.0%	i
Cn1ncc2c(NCc3cccc(Cl)c3)ncnc21	-12.8%	-10.7%
Cc1ccc(-c2csc(N3CCC(NS(=O)(=O)c4ccc5c(c4)OCCO5)CC3)n2)cc1	8.91µM*	u
O=C(CN1C(=O)NC2(CCCCCC2)C1=O)N1CCC(Cc2ccccc2)CC1	-25.2%	u
CCCCCn1nc(C(=O)OCc2nc(N)nc(Nc3ccccc3)n2)c2ccccc2c1=O	13.9%	-9.4%
CCOc1cc(/C=N/NC(=O)C(=O)N/N=C/c2ccc(O)c(OCC)c2)ccc1O	-9.5%	-1.0%
CCOC1=C2[C@H](c3ccccc3)N(S(=O)(=O)c3ccc(C)cc3)C(C(C)(C)C)[C@H]2C(C#N)(C#N)C(C#N)(C#N)C1 (stereo not given in full)	-17.4%	-9.1%
Cc1cc([N+](=O)[O-])nn1CC(=O)Nc1cnc2ccccc2c1	u	u
N#Cc1ccsc1NC(=O)CN1CCN(c2ccccc2O)CC1	-0.6%	-5.2%
Cc1ccc2c(c1)[C@H]1[C@H](CO2)[C@H](c2ccccc2)[C@]2(C)C(=O)Nc3cc(F)c(F)cc3C(=O)N12	u	-19.0%
CCc1nc2ccc(C(=O)Nc3cccc(NS(C)(=O)=O)c3)cn2c1N(C)C(=O)c1cccc(OC)c1	4.0%	46.8%[activator]
CC(C)CCNC(=O)C1CC(=O)N(C2CCCC2)C1 (stereo not given)	-13.5%	-9.7%
CC(C)CC1Nc2ncnc(N3CCN(c4ccccn4)CC3)c2N(Cc2ccc(Br)cc2)C1=O (stereo not given)	u	-24.2%&-0.2%
OCCNCCOc1ccccc1F	-10.0%	x
O=C(Oc1ccc2[nH]cc(CCN3C(=O)c4ccccc4C3=O)c2c1)c1ccco1	-12.2%	i
CC(=O)NS(=O)(=O)c1ccc(NC(=O)CC(C)c2ccccc2)cc1 (stereo not given)	4.7%	i
OC[C@@H]1CN(Cc2ccccc2)C[C@H](n2cnc3c(NCc4ccncc4)ncnc32)O1	5.0%	13.1%

SMILES	VACV Venus inh	Vaccinia mCherry
Cc1ccc(NC(=O)Nc2nnc(N(C)Cc3ccccc3)s2)cc1	-15.2%	-25.9%
O=C(c1ccc(F)cc1)c1cnc(Nc2ccccc2)s1	-2.9%	-11.7%
CCOCCCn1c(SCC(=O)Nc2ccc(OC)cc2OC)nc2ccccc2c1=O	-29.1%	-8.5%
C[C@]12CC[C@H](N)CC1=CCC1C2CC[C@@]2(C)C1CC[C@@H]2O (stereo not given in full)	-9.7%	-23.2%
COc1ccc(-c2[nH]ncc2CN2CCC(C(=O)c3ccc(F)cc3)CC2)cc1	-7.8%	u
S=c1nc(Cc2ccc(Cl)cc2)[nH]c2ccccc12	-21.8%	-37.5%
Cc1cc2c(cc1S(=O)(=O)N(C)Cc1ccccc1)n(C)c(=O)c(=O)n2C	-6.2%	-16.6%
Cc1ccc(NC(=O)CNC(=O)c2ccccc2F)cc1Cl	-6.8%	i
Cc1ccc(S(=O)(=O)N(C)C)cc1NC(=O)COC(=O)Cc1ccc(Br)cc1	-3.9%	-11.2%
O=C(NCCCCCNC(=O)c1ccco1)c1ccco1	-6.5%	-7.6%
O=C(Nc1ccc2ncccc2c1)Nc1ccc2ncccc2c1	-20.1%	-7.2%
Cc1cccc(N(CC(=O)NCc2ccc3c(c2)OCO3)C(=O)CCC(=O)Nc2ccccn2)c1C	-16.0%	x
O=C(NCCc1ccc(Cl)cc1)C1CCN(S(=O)(=O)c2cccc3nonc23)CC1	-11.5%	x
CCOc1ccc(NC(=O)CC2C(=O)N(c3ccc(C)cc3)C(=O)N2Cc2ccc(OC)cc2)cc1 (stereo not given)	-1.8%	-10.6%
COc1cc2nc(N3CCCN(C)CC3)nc(OC3CCN(C)CC3)c2cc1OC	u	u
Cc1ccc(NS(=O)(=O)c2cc(OCC(N)=O)c(C)cc2Cl)cc1	-19.8%	-22.6%
Cc1ccc(C(=O)N2CCN(c3ccc(NC(=O)c4cccs4)cc3)CC2)cc1	-24.6%	-11.1%
CCOC(=O)c1nc(C)sc1-c1ccnn1S(=O)(=O)c1ccc(C)cc1	-17.0%[7.34 µM]	-13.3%[7.34 µM]
CC[N+]1(C)[C@@H]2CC[C@H]1CC(OC(=O)[C@H]1CCC(C(=O)OC3C[C@H]4CC[C@@H](C3)[N+]4(C)CC)(c3ccccc3)c3ccccc31)C2 (stereo not given in full)	-9.7%	-17.5%
CCOC(=O)c1cnc(SCC(=O)c2ccc(Cl)cc2)nc1N	-13.8%	x
CCCOc1ccc(CNC(=O)c2oc3ccc4c(c3c2C)C(=O)CC(C)(CC)O4)cc1 (stereo not given)	-27.2%	-25.5%
COc1cc(NC2c3ccccc3C(=O)N2Cc2ccc3c(c2)OCO3)cc(OC)c1 (stereo not given)	-12.3%	-22.2%
O=S(=O)(NCCN1CCOCC1)c1ccc(F)c(Cl)c1	-10.3%	i
O=C(c1ccc2c(c1)OCO2)C1CCCN(Cc2cn[nH]c2-c2cccc(F)c2)C1 (stereo not given)	2.5%	u
CC1(C)CC(NC(=O)c2cccc(F)c2)CC(C)(C)N1	-9.5%	i

SMILES	VACV Venus inh	Vaccinia mCherry
CC(C)(C)n1ncc2c(=O)n(CC(=O)N3CCCc4ccccc43)cnc21	-13.7%	x
CC1(C)Cc2ccccc2-c2nc(NCCCO)[nH]c(=O)c21	-11.7%	i
c1cncc(C(c2nnnn2C2CCCCC2)N2CCN3CCCC3C2)c1 (stereo not given)	-9.7%	-16.5%
CCN(CC(=O)Nc1ccc(S(=O)(=O)N2CCCC2)cc1)Cc1ccccc1	-15.9%	-6.6%
Cc1ccc(NC(=O)COC(=O)/C=C/c2cccs2)cc1	-8.9%	i
Cc1cccc(N(C(=O)CNC(=O)c2ccco2)C(C(=O)NC2CCCC2)c2cccnc2)c1 (stereo not given)	-11.9%	-13.3%
CCN(CC)C(=O)c1ccc(-c2cccs2)s1	-21.0%	-29.9%
O=C(c1cc(COc2ccc(F)cc2F)on1)N1CCCC(c2ccccc2)C1 (stereo not given)	-30.7%	-20.9%
CCOC(=O)c1cc(C#N)c(Oc2ccccc2OC)nc1-c1ccccc1	-26.0%	x
Cn1cccc1-c1nc2ccc(NC(=O)c3cccs3)cc2[nH]1	-3.1%	-1.6%
O=C(N/N=C/c1cccc([N+](=O)[O-])c1)c1ccc(COc2ccccc2-c2ccccc2)cc1	-7.1%	-8.7%
Clc1ccccc1CN1CCN(c2ncccn2)CC1	-15.9%	-12.5%
Cc1ccc(-n2c(O)c(C=NCC3CCCO3)c(=O)[nH]c2=O)c(C)c1 (stereo not given)	5.1%	-10.0%
Cc1cc(Br)ccc1NC(=O)CNC(=O)Cn1ncc(Cl)c(Cl)c1=O	-7.6%	-3.9%
CN(c1ccc(OCC(=O)OCC(=O)NC2CCCC2)cc1)S(=O)(=O)c1ccc2ccccc2c1	-6.3%	i
CC(C)CNC(=O)COC(=O)c1cc(Cl)cc(Cl)c1N	-14.1%	-14.0%
Cc1cn(C)c(CC(=O)NCc2ccc(F)cc2)c1C(=O)O	-6.2%	-11.8%
COc1ccc(N2CCN(C(=O)c3ccccc3N(C)S(=O)(=O)c3ccc(C)cc3)CC2)cc1	-21.0%	-11.5%
CC(C)C[C@@H](C(=O)N[C@@H](C(=O)O)c1ccccc1)N1C(=O)N2CCc3c([nH]c4ccccc34)[C@@]2(C)C1=O	2.2%	-4.9%
CCN(C)C1CN(Cc2cn(Cc3ccc(OC)cc3)nn2)S(=O)(=O)C1 (stereo not given)	0.9%	3.0%
COc1ccc(CC(=O)NNC(=O)c2ccncc2)cc1	1.7%	i
CCOc1ccccc1NC(=S)NC(=O)CCCOc1ccc(Cl)cc1Cl	-13.8%	-13.9%
Cc1ccc([C@H]2C[C@@H](n3cc(C4CC4)nn3)[C@H](O)CN2Cc2cccs2)cc1	-26.1%	-7.6%
N=c1n(CCO)c2ccccc2n1Cc1ccccc1Cl	-24.4%	-12.0%
C#CCOC(=O)CCCN1C(=O)c2cccc3cccc(c23)C1=O	-3.1%	i

SMILES	VACV Venus inh	Vaccinia mCherry
CCCOc1cccc(C2C(C(=O)c3ccco3)=C(O)C(=O)N2c2nnc(C)s2)c1 (stereo not given)	-13.2%	i
Cc1nn(C(=O)c2cccc(F)c2)c(C)c1S(=O)(=O)N1CCCCCC1	5.9%	-0.7%
O=C(CSc1nnc2ccccn12)NNC(=O)c1cccc(Cl)c1	-10.0%	i
CCOc1ccccc1Nc1nc2ccccc2n1C(C)C	-1.2%	u
CSc1nsc(SCC(=O)Nc2ccccc2C(N)=O)n1	u	u
CC(=O)NCC(=O)N(c1c(C)n(C)n(-c2ccccc2)c1=O)C1(C(=O)NC2CCCC2)CCCCC1	-19.6%	-14.0%
CCOC(=O)C1(Cc2ccccc2)CCN(Cc2ccon2)CC1	-6.7%	-1.3%
CCN(CC)CCCNC(=O)c1cc(-c2ccc3c(c2)OCO3)on1	-2.3%	-0.8%

One compound at a time, from the list above. Order of screens: VACV Venus inh | Vaccinia mCherry
CC(C)(C)n1ncc2c(=O)n(CC(=O)N3CCCc4ccccc43)cnc21 in the list: -13.7% | x
CC(=O)c1cc(CN2CCC(n3nccc3NC(=O)c3ccccc3C)CC2)cs1 in the list: -5.8% | -11.7%

Bioassay records deposited in PubChem BioAssay by National Center for Advancing Translational Sciences (NCATS).
